# Screening results (PubChem)
# VDR inhibitor: blocks the human vitamin D receptor; VDR-SRC2-3 peptide fluorescence polarization, 2 h; Potency, µM, inactives show max response, negative = inhibition, usual class: inhibitors; hit rate 0.93% among 400,000; AID 504847; active = well fitted inhibition curve with a large enough effect; inconclusive = small, poorly fitted or top-dose-only effect, or another doubt; inactive = no such curve, though single readings can be large or run the other way; also: series mostly up to about 120 µM
# Target sequence (P11473 whole entry, looked up): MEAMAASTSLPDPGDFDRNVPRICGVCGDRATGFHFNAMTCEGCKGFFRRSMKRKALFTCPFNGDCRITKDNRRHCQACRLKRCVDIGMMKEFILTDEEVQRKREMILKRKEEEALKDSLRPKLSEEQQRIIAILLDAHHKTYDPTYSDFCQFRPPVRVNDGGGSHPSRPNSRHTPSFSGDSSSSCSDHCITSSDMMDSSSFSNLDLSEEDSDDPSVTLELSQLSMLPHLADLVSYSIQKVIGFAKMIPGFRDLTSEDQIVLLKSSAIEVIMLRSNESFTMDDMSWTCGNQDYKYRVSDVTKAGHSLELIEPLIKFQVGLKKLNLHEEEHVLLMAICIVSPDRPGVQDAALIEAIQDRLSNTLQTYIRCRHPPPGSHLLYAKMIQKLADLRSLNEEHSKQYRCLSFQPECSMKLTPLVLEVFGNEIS
#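 VDR–SRC2-3 interaction, FP format. Cmpds 23 nl via pintool, brief spin, 2 h ambient incubation.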
# The depositor's hits bear a star; ? = inconclusive; & = joins results of further samples; [ ] = remark or other dose. % is scaled to controls: 0 for no effect and ±100 for the full control effect; potency is read from the fitted curve at half-maximal effect. A portion of the library. The share of hits here may be higher or lower than overall.
SMILES,VDR inhibitor
Cc1cc(C)n(-c2nc(N(c3ccccc3)c3ccccc3)nc(-n3nc(C)cc3C)n2)n1,-2.1%
COc1ccccc1C1NC(c2ccc3c(c2)OCO3)=CC(c2cc(Br)ccc2O)N1 (centres undefined),-26.9%
O=C(O)CCNS(=O)(=O)c1ccccc1Br,-12.2%
CC(C)Cc1nc(N2CCN(C(=O)C(C)C)CC2)c(C#N)c2c1CCC2,-18.7%
COc1cccc(NC(=O)C(Sc2nc3ccccc3c(=O)n2CC(C)C)c2ccccc2)c1 (centres undefined),3.2%
O=C(Cn1ncc2c3ccccc3n(Cc3ccccc3)c2c1=O)N1CCN(c2ncccn2)CC1,-6.0%
O=C(NCc1ccco1)C1CCCN(S(=O)(=O)c2cc(Cl)ccc2Cl)C1 (centres undefined),-11.8%
Cc1cc2nc(-c3cccc(NC(=O)C(C)C)c3C)oc2cc1C,7.0%
CC(C)N(Cc1cnn(C)c1)Cc1nc(Cc2ccccc2Cl)no1,-6.2%
c1ccc2c(c1)CC(N1CCCCC1)c1ccccc1N2 (centres undefined),5.8%
Cc1cc(C)n2nc(C(=O)OC(C)C(=O)c3ccccc3)nc2n1 (centres undefined),-2.9%
COc1ccc(S(=O)(=O)Cc2ccc(C(=O)N3CCN(C(=O)c4ccco4)CC3)o2)cc1,-16.2%
COc1ccccc1C(c1nnnn1CS(=O)(=O)c1ccc(C)cc1)N1CCSCC1 (centres undefined),3.8%
c1cn2c(NC3CCCCC3)c(-c3ccc(SC4CCCCC4)cc3)nc2cn1,49.3%[activator]
COc1ccc(OC)c(-c2nnc3n(CCc4ccccc4)c(=O)c4ccccc4n23)c1,22.5%
C/C(=N/NC(=O)c1ccccn1)c1c[nH]c2ccccc12,15.9%
Cc1ccc(-c2nc3sc4c(N)ncnc4c3c3c2CCCC3)cc1,-17.8%
Cc1ccc(S(=O)(=O)NNC(=O)c2cc3cc4ccccc4nc3s2)cc1,5.4%
CC(CNC(=O)c1cccnc1)NC(=O)c1cccnc1 (centres undefined),10.4%
O=C(Nc1ccon1)c1ccc(Cl)c(S(=O)(=O)N2CCCCC2)c1,-11.7%
O=C(OCn1ncc(Br)c(Br)c1=O)c1ccc(F)cc1,25.1µM*
COc1ccc(C(=O)CC(Nc2ccc([N+](=O)[O-])cc2)c2ccc(OC)cc2)cc1 (centres undefined),-13.6%
O=C(CCCOc1ccc(Cl)cc1Cl)NN1CCOCC1,-11.6%
Cc1cc(C)n(C(=O)c2ccc(S(=O)(=O)NCC3CCCO3)cc2)n1 (centres undefined),-19.1%
CCOc1cc(C(=O)OC(C)C(=O)Nc2ccc(NC(C)=O)cc2)ccc1OCC(=O)N1CCCCC1 (centres undefined),-12.9%
# Continuation.
SMILES,VDR inhibitor
CCCNC(=S)N1CCN(Cc2ccc3c(c2)OCO3)CC1,18.2%
CCO[C@@H]1OC(C(N)=O)=C[C@H](C2CCCCC2)[C@H]1CCCO,-0.8%
c1csc(CNc2ccnc(-c3ccoc3)n2)c1,22.4µM*
O=S(=O)(Nc1ccccc1)c1ccc(F)cc1,18.8%
CCc1ccc(NC(=O)C(C)Nc2ccc(S(=O)(=O)NC(C)=O)cc2)cc1 (centres undefined),-4.3%
CCC(C)c1ccc(OCCn2cc(/C=N/NC(=O)CSc3nnc(C)s3)c3ccccc32)cc1 (centres undefined),2.2%
O=C(O)c1ccccc1C(=O)N1CCN(Cc2ccc3c(c2)OCO3)CC1,0.6%
Cc1cccc(N(Cc2ccccc2)C(=O)C2CCN(C(=O)c3ccccc3C)CC2)c1,-0.3%
C=CCOc1cccc(/C=N/NC(=O)CC(=O)NC2CCCCC2)c1,3.9%
O=S(=O)(NC1CCN(Cc2ccccc2)CC1)c1ccc(Cl)cc1,10.5%
C=C1C2(C(=O)Nc3ccc(SC(F)F)cc3)CCC(C2)C1(C)C (centres undefined),-2.7%
COC(=O)[C@@H]1Cc2c([nH]c3ccccc23)C(C)N1C(=O)c1ccccc1 (some centres undefined),5.6%
CC(C)[C@H](N)C(=O)NC[C@H]1CC[C@H](C(=O)N[C@@H](Cc2ccccc2)C(=O)O)CC1,-5.4%
CCOC(=O)c1c(-c2cccs2)csc1NC(=O)C(C)(C)C,21.5%
CCC1CCCCN1C(=O)CSc1nc(-c2ccc(OC)c(OC)c2)cc(C(F)(F)F)n1 (centres undefined),-17.7%
Cc1cc(C)c2nc(N(CCCN(C)C)C(=O)C3=COCCO3)sc2c1,5.3%
CCOC(=O)C1=NN(c2cccc(Cl)c2)C2=NC(C)=C(C(=O)OC)C(c3cccs3)N12 (centres undefined),12.6%
CCc1ccccc1NC(=S)NNC(=O)c1ccccc1Cl,10.2%
O=C(COc1ccccc1)NNc1nc2c(F)cccc2s1,-3.5%
COc1ccc(N(C(=O)/C=C/C(=O)Nc2cc(C)on2)C(C(=O)NC2CCCC2)c2ccccc2C)cc1 (centres undefined),-8.9%
CCCN(C(=O)Cn1nc(Cc2cccnc2)c2ccccc2c1=O)c1ccc(C(C)C)cc1,-16.4%
CCOc1ncccc1C(=O)NCC(c1ccccc1)N(C)C (centres undefined),-2.9%
CCC(=O)c1ccc(OCC(=O)Nc2ccc3nc(C)sc3c2)cc1,-9.3%
COc1cccc(CNC(=O)C2CCN(S(=O)(=O)c3ccc4c(c3)CCC(=O)N4)CC2)c1,-11.1%
CCO[C@H]1OC(C(=O)N2CCOCC2)=C[C@@H](c2ccc(C(F)(F)F)cc2)[C@@H]1CCCO,-6.6%

# A different layout for part of the listing above.
mol: CCC1CCCCN1C(=O)CSc1nc(-c2ccc(OC)c(OC)c2)cc(C(F)(F)F)n1 (centres undefined)
  VDR inhibitor = -17.7%

mol: Cc1cc(C)c2nc(N(CCCN(C)C)C(=O)C3=COCCO3)sc2c1
  VDR inhibitor = 5.3%

mol: CCOC(=O)C1=NN(c2cccc(Cl)c2)C2=NC(C)=C(C(=O)OC)C(c3cccs3)N12 (centres undefined)
  VDR inhibitor = 12.6%

mol: CCc1ccccc1NC(=S)NNC(=O)c1ccccc1Cl
  VDR inhibitor = 10.2%

# New compounds follow
SMILES,VDR inhibitor
COc1ccc2nc(SCC(=O)NC3CCCCC3C)[nH]c2c1 (centres undefined),-0.9%
CCN(c1ccc(C)cc1C)S(=O)(=O)c1nnc(NC(=O)C(C)C)s1,25.8%
CCCn1c(=O)n(CC(=O)NCC2CCCO2)c(=O)c2c3c(sc21)COC(C)(C)C3 (centres undefined),2.9%
O=C(NCCc1nc2ccccc2[nH]1)/C(=C/c1ccc(F)cc1)NC(=O)c1ccco1,-8.0%
CCCN(CCC)CCNC(=O)c1cc2c(-c3ccc(Cl)cc3)nn(C)c2s1,10.4%&4.0%
CC(=O)c1ccc(NC(=O)c2ccc3c(c2)nnn3C2CCCC2)cc1,6.5%
O=S(=O)(c1ccc(NC2CCCc3ccccc32)nc1)N1CCOCC1 (centres undefined),1.0%
COc1cc(C2c3cc4c(cc3OC(NNC(N)=O)C2C)OCO4)cc(OC)c1OC (centres undefined),-25.9%
O=C(O)c1ccccc1-c1nnc2c(Cl)cc(C(F)(F)F)cn12,-12.1%
CCOC(=O)Cc1csc(NC(=O)CSC2=NCCS2)n1,-10.4%
Cc1noc(C)c1COc1ccc(C(=O)OCC(=O)N2c3ccccc3NC(=O)C2(C)C)cc1,7.9%
CCCCCC(=O)N[C@@H](c1ccccc1)[C@@H](O)C(=O)O[C@H]1C[C@@]2(O)[C@@H](OC(=O)c3ccccc3)C3[C@](C)(C(=O)[C@H](OC(C)=O)C(=C1C)C2(C)C)[C@@H](O)C[C@H]1OC[C@@]31OC(C)=O (some centres undefined),-10.9%
Brc1ccc(-c2nnc(-c3ccc4c(c3)OCO4)o2)o1,-5.8%
Cc1cccc(CC(=O)NCCN2CCCCC2)c1,1.9%
Cc1cc(OCC(=O)N2CCN(c3cccc(Cl)c3)CC2)c2c(C)c(C)c(=O)oc2c1,-15.9%
O=S(=O)(/C=C/c1ccccc1)Nc1cccc(S(=O)(=O)NC2=NCCC2)c1,22.8%
CCOC(=O)c1c(NC(=O)COC)sc(C(C)=O)c1C,8.0%
CCCCn1nc2cc(C(=O)N(CC)c3ccc(OC)cc3)ccc2c1OCC,6.7%
O=C(CSc1ncccc1C(=O)O)Nc1ccc2c(c1)OCCO2,-3.2%
COc1ccc(-c2cc(=O)oc3cc(OCC(=O)N4CCOCC4)ccc23)cc1,14.6%
Cc1ccc(NC(=S)N2CCOCC2)cc1,-8.3%
COc1cccc(Cn2c(=O)c(-c3cn(C)c4ccccc34)nc3cnc(N4CCOCC4)nc32)c1,6.3%
O=C1c2ccccc2C(=O)N1Nc1ccc([N+](=O)[O-])cc1[N+](=O)[O-],-7.1%
CC(C)C(=O)Nc1cccc(C(=O)Nc2ccccc2C(=O)O)c1,-0.8%
CCOC(=O)c1sc2nc3n(c(=O)c2c1C)CCCCC3,-8.0%
# Following part:
SMILES,VDR inhibitor
O=C(NCc1cc(C(F)(F)F)ccc1Cl)c1cccc2c1C(=O)c1ccc(N3CCC(Cc4ccccc4)CC3)cc1S2(=O)=O,-7.9%
CC(=O)c1c(C)[nH]c(C(=O)CSc2nnc3ccccn23)c1C,16.5%
CC(=O)c1cccc(NC(=O)CSc2nnc(-c3ccncc3)o2)c1,4.6%
CC(=O)c1ccccc1OC(=O)c1ccco1,10.2%
Cc1ccc2nc(-c3ccc(SCC(=O)Nc4ccc5c(c4)OCCO5)nc3)[nH]c2c1,-14.8%
O=C1COc2ccc(S(=O)(=O)Nc3cccc(Cl)c3)cc2N1,15.5%
CN1CCN(CCC(=O)Nc2ccc(OCc3ccccc3)cc2)CC1,2.1%
CCc1nnc(NC(=O)CN2CC(C)OC(C)C2)s1 (centres undefined),-3.0%
Cc1nn(C(=O)c2ccc3c(c2)OCO3)c(N)c1-c1ccccc1,-13.6%
COc1ccc(C(=O)Nc2ccc(NC(=O)c3cccs3)cc2)cc1Cl,?
CC(C)(CNC(=O)c1ccccc1F)CNC(=O)c1ccccc1F,-14.2%
Cc1ccc2c(c1)N(CC(=O)NC1CCCCCC1)C(=O)c1cccnc1O2,-14.9%
Cc1ccc(S(=O)(=O)C2(C(=O)NCc3ccccc3Cl)CC2)cc1,10.6%
O=C(COC(=O)C12CC3CC(CC(Br)(C3)C1)C2)Nc1c(F)cccc1F,-6.1%
Cc1cc(OC(C)C(=O)NCC2CCC(C(=O)O)CC2)c2c(C)cc(=O)oc2c1 (centres undefined),-0.5%
COc1ccc(/C=N/NC(=O)c2[nH]nc3c2CCc2ccccc2-3)cc1OC,11.3%
COc1ccc(NS(=O)(=O)c2cccc(NC(=O)CCS(=O)(=O)c3ccccc3)c2)cc1,-28.1%
O=C(Nc1ccccc1)N1CCNCC1,-8.9%
CC(C)[C@H](NC(=O)C1CCN(S(=O)(=O)c2ccccc2)CC1)C(=O)NCc1ccco1,-8.2%
Cc1cc(NC(=O)c2cc(-c3ccc(O)cc3)on2)no1,-13.2%
COc1cccc(CN2CC(C(=O)N3CCN(c4ccc(Cl)cc4)CC3)CCC2=O)c1 (centres undefined),-18.5%
Cc1cc(OC(C)C)c2c(-c3ccccc3)cc(=O)oc2c1,1.3%
Cc1nc(Cc2nnc(SCC(=O)N(C)c3ccccc3)o2)cs1,-21.0%
COc1ccc(CCNC2=NCCS2)cc1OC,-9.3%
CCC(Sc1ncnc2c1nnn2-c1ccc(F)cc1)C(=O)OC (centres undefined),-1.1%
# Later entries
SMILES,VDR inhibitor
CCC(CC)c1nnc(NC(=O)CS(=O)(=O)Cc2ccccc2)s1,3.0%
O=C(COc1ccc(Cl)cc1Cl)N(c1ccccn1)C1CCCCC1,-18.7%
CC(C)CC(NC(N)=O)C(=O)NCc1ccc(Cl)cc1 (centres undefined),12.4%
Cc1cccc(-n2cnc(C(=O)N/N=C/c3ccccc3)c2)n1,-16.4%
COc1ccc([N+](=O)[O-])cc1NC(=O)C(C)OC(=O)CSC(C)C(=O)Nc1cc(C)on1 (centres undefined),-3.5%
C=CCNC(=O)CN(Cc1ccccc1)S(=O)(=O)c1ccc(C)cc1,-9.5%
CCN(CC(=O)Nc1c(F)cccc1F)C(=O)c1ccc2ncsc2c1,-5.1%
CCOc1ccc(NC(=O)CC2C(=O)N(c3ccc(OC)cc3)C(=S)N2Cc2ccccn2)cc1 (centres undefined),5.0%
O=[N+]([O-])c1cccc(S(=O)(=O)N2CCN(c3nc(-c4ccccc4)nc4ccccc34)CC2)c1,1.5%
COCCn1c(C)cc(C(=O)COC(=O)CCN2C(=O)c3ccccc3C2=O)c1C,13.9%
O=C(COC(=O)c1ccc(Cl)c([N+](=O)[O-])c1)NC1CCCC1,6.1%
CCOC(=O)c1cccc(NC(=O)CCn2nc(C)c(S(=O)(=O)N3CCCCC3)c2C)c1,-13.7%&1.7%
CCCCn1c(=O)[nH]c2nc3cc(N)ccc3nc2c1=O,?
CCOc1cc(NC(=S)NCCCN2CCOCC2)c(OCC)cc1NC(=O)c1cccc(F)c1,0.1%
O=C1/C(=C\c2ccc([N+](=O)[O-])cc2)CS(=O)(=O)C/C1=C/c1ccc([N+](=O)[O-])cc1,39.8µM*
OCc1cc(CO)c(O)c(CCc2ccccc2)n1,2.6%
c1ccc(-c2nnc(N3CCOCC3)nc2-c2ccccc2)cc1,9.8%
O=[N+]([O-])CC(c1ccccc1)P(=O)(c1ccccc1)c1ccccc1 (centres undefined),18.4%
COCCCN1C(=O)C(=O)/C(=C(/O)c2ccc(S(=O)(=O)N3CCOCC3)cc2)C1c1ccc(C)cc1 (centres undefined),-9.6%

# 6 of the compounds above, with bars between the fields:
mol | VDR inhibitor
COCCn1c(C)cc(C(=O)COC(=O)CCN2C(=O)c3ccccc3C2=O)c1C | 13.9%
O=C(COC(=O)c1ccc(Cl)c([N+](=O)[O-])c1)NC1CCCC1 | 6.1%
CCOC(=O)c1cccc(NC(=O)CCn2nc(C)c(S(=O)(=O)N3CCCCC3)c2C)c1 | -13.7%&1.7%
CCCCn1c(=O)[nH]c2nc3cc(N)ccc3nc2c1=O | ?
CCOc1cc(NC(=S)NCCCN2CCOCC2)c(OCC)cc1NC(=O)c1cccc(F)c1 | 0.1%
O=C1/C(=C\c2ccc([N+](=O)[O-])cc2)CS(=O)(=O)C/C1=C/c1ccc([N+](=O)[O-])cc1 | 39.8µM*
